# Screening results as filed in PubChem BioAssay.
# 2A StopGo – FMDV 2A StopGo reporter, luciferase signal; AID 1159524; hit rate 1.2% among 410,000; human cells with a luciferase reporter of 2A StopGo recoding; control for the full effect not named in the record; Potency, µM (doses to about 57.9 µM), for inactives: at the highest dose signal change, negative = less light; active = well fitted falling curve with a large enough effect; inconclusive = small, poorly fitted or top-dose-only effect; inactive = no such curve, though single readings can be large or run the other way; tested in HEK293T cells; further: on the % scale 0 is the no-effect control and ±100 the full control effect; nearly all actives have a fitted effect of over 45% in size; luciferase light after 4 h
# Cruzain Triton – blocks cruzain activity in presence of Triton detergent | purified cruzain, Z-FR-AMC fluorescence, 0.01% Triton | Potency, µM, for inactives: max response, negative = inhibition, most hits filed as inhibitors | hit rate 0.43% among 200,000; active means well fitted curve in the direction sought with a large enough effect; inconclusive means small, poorly fitted or top-dose-only effect, or another doubt; inactive means no such curve, though single readings can be large; an effect the other way counts as inactive or inconclusive;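 further: plate controls were neutral wells for no effect and buffer without enzyme for full effect; nearly all actives have a fitted effect of over 40% in size; top concentration of the series not given in the record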
# Target sequence (P25779 123-467 limits assumed): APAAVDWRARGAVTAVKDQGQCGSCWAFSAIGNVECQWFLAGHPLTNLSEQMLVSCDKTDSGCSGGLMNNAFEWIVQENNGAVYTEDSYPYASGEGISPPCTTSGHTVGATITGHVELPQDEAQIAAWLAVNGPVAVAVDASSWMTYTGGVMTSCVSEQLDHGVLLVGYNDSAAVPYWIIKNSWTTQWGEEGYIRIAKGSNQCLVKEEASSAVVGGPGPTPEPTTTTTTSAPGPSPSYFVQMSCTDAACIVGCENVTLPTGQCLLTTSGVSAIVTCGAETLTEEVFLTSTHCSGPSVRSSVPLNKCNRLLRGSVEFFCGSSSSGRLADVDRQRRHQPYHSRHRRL
#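 15 min RT preincubation of 1.5 nM cruzain with compound, then 2 uM Z-FR-AMC added; kinetic AMC fluorescence, 60 s delta. Triton X-100 0.01%, pH 5.5.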
# LASV entry inh – blocks Lassa virus binding to or entry into cells; Potency, µM (doses to about 37.9 µM), for the others: at the highest dose activity change, negative = inhibition, hits mostly inhibitors; hit rate 1.2% among 300,000; Lassa virus pseudotype entry inhibition, cell reporter; control for the full effect not named in the record; AID 540256; active means well fitted inhibition curve with a large enough effect; inconclusive means small, poorly fitted or top-dose-only effect, or effect the other way; inactive means flat fitted curve, though single readings scatter; tested in HEK293 cells; further: on the % scale 0 is the no-effect control and ±100 the full control effect; nearly all actives have a fitted effect of over 50% in size; luciferase read-out
# RE007 growth inh – less growth of the S. pombe RE007 Vpr strain; S. pombe RE007 Vpr strain, BacTiter-Glo ATP luminescence, 24 h; control for the full effect not named in the record; Potency, µM (series often up to 92.2 µM), inactives show at the highest dose activity change, negative = less growth; hit rate 0.21% among 360,000; AID 651644; active = well fitted falling curve with a large enough effect; inconclusive = small, poorly fitted or top-dose-only effect; inactive = no such curve, though single readings can be large or run the other way;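 further: on the % scale 0 is the no-effect control and ±100 the full control effect; nearly all actives have a fitted effect of over 50% in size; the assay follows cell death caused by Vpr and the record does not say whether a fall means rescue or toxicity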
#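 Fission yeast strain RE007, carrying one chromosomally integrated HIV-1 vpr copy, was seeded at OD 0.01 in PMG+AL medium with 23 nL pinned compound. After 24 h at 30 °C and 99% humidity, viability was read by BacTiter-Glo luminescence.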
# Marburg entry inh – Marburg virus entry inhibition; Potency, µM (titrated, usually from 37.8 µM), without a hit: top-dose activity change, negative = inhibition, usual class: inhibitors; Marburg virus pseudotyped entry inhibition, cell reporter; control for the full effect not named in the record; about a third of the inactives were read at about 46 µM; hit rate 1.8% among 300,000; active = well fitted inhibition curve with a large enough effect; inconclusive = small, poorly fitted or top-dose-only effect, or effect the other way; inactive = flat fitted curve, though single readings scatter; tested in HEK293 cells; about a fifth of its hits are not listed in these tables; further: on the % scale 0 is the no-effect control and ±100 the full control effect; luciferase read-out
# Cruzain inh noDet – inhibitors of Trypanosoma cruzi cruzain without detergent; AID 1476; hit rate 2.3% among 200,000; P25779; purified cruzain, Z-FR-AMC fluorescence, no detergent; Potency, µM, for the others: max response, negative = inhibition, actives largely listed as inhibitors; active means well fitted curve in the direction sought with a large enough effect; inconclusive means small, poorly fitted or top-dose-only effect, or another doubt; inactive means no such curve, though single readings can be large; an effect the other way counts as inactive or inconclusive;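 further: plate controls were enzyme without inhibitor for no effect and buffer without enzyme for full effect; nearly all actives have a fitted effect of over 40% in size; top concentration of the series not given in the record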
#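 Purified cruzain at 1.5 nM, pre-incubated 15 min with compound at room temperature in 100 mM sodium acetate pH 5.5, 5 mM DTT, 0.00005% Triton X-100. Reaction started with 2 uM Z-FR-AMC; AMC fluorescence increase over 60 s gives rate.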
# NS1 function inh – inhibitors of influenza NS1 protein function; S. cerevisiae slowed by influenza A NS1, growth recovery by OD600; Potency, µM (doses to about 46.1 µM), without a hit: at the highest dose activity, positive = more growth; hit rate 0.4% among 270,000; further: actives are rising curves; nearly all actives have a fitted effect of over 50% in size
#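 S. cerevisiae expressing influenza A NS1, grown in glucose, washed, then diluted 1:100 into pH 6.0 -URA galactose medium with 23 nl compound. Growth recovery read as OD600; NS1-free strain serves as control.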
# SARS PLP yeast – blocks SARS-CoV papain-like protease in a yeast assay. Potency, µM (titrated, usually from 32.9 µM), inactives show at the highest dose activity, positive = growth rescue. S. cerevisiae expressing SARS-CoV PLpro, growth rescue; control for the full effect not named in the record. AID 485353. hit rate 0.19% among 330,000; further: 0% is about no effect; nearly all actives have a fitted effect of over 55% in size; growth read by luminescence after 48 h
# Starred values were filed as active, the others as inactive; ? = inconclusive; nt = no result given; [ ] = another dose, or the depositor's remark. Unless noted, the call rests on the fitted dose curve; in most records, active means well fitted rising curve with a large enough effect; inconclusive means small, poorly fitted or top-dose-only effect; inactive means no such curve, though single readings can be large or run the other way. Potency means the concentration at half of the fitted maximal effect.
SMILES,2A StopGo,Cruzain Triton,LASV entry inh,RE007 growth inh,Marburg entry inh,Cruzain inh noDet,NS1 function inh,SARS PLP yeast
O=C(Nc1nnc(SCc2ccc(F)cc2)s1)c1cnccn1,22%,nt,-2%,-14%,-29%[46.1 µM],nt,-21%,-1%
COc1cccc(C=Nc2cc(C)on2)c1O,-21%,-0.3%,5%,4%,7%,-3%,-19%,0%
Cc1nc(NC(=O)C2CC2)sc1C(=O)N(C)C,-10%,2.0%,0%,-2%[3.69 µM],-1%,-7%,-10%,-10%
O=C(NCCCN1CCN(c2ccc(F)cc2)CC1)c1cccc(N2CCCC2=O)c1,-6%,-2.1%,12%,-15%,2%,0%,-2%,?
CCc1ccc(-n2nc(CO)c(C(=O)NCc3ccccc3OC)n2)cc1,-5%,0.6%,-12%[46.1 µM],nt,14%[46.1 µM],6%,nt,nt
COCc1cc(C2SCC(=O)Nc3c2c(=O)[nH]n3C(C)C)ccc1OC (configuration not stated),-8%,2.2%,1%,22%,0%[46.1 µM],2%,-1%,1%
CC1(NC(=O)Nc2ccccc2)CCS(=O)(=O)C1 (configuration not stated),-2%,nt,4%,-14%,12%,nt,-1%,1%
Cc1ccc(N2CC(C(=O)OCC(=O)c3ccc(C)c([N+](=O)[O-])c3)CC2=O)cc1 (configuration not stated),-10%,nt,-8%,-29%,14%[46.1 µM],nt,nt,1%
O=C1OC(c2ccccc2)=C/C1=C/c1cccs1,15%,-9.9%,8%,-14%,17%,-6%,-31%,-3%
O=C1CCCC2=C1C(c1ccncc1)c1c(nc(SCc3ccccc3)[nH]c1=O)N2 (configuration not stated),?,1.9%,-16%,-23%,-19%,-2%,-55%,-1%
Cc1ccc(Cn2ncc3c(NN)ncnc32)cc1,6%,nt,?,10%,-5%,nt,7%,-4%
CCNC(=O)CC1C(=O)N(c2ccccc2)C(=O)N1CCc1ccc(OC)cc1 (configuration not stated),12%,4.3%,-5%,-13%,9%,5%,-3%,-2%
COc1ccc2c(c1)c(N1CCCC1=O)c(C(=O)Nc1ccc(Cl)cc1C)n2C,-25%,-7.6%,-24%[46.1 µM],nt,nt,4%,nt,nt
Cc1cc(C)c(C)c(S(=O)(=O)NCC(=O)O)c1C,-10%,6.4%,-9%,-12%,-1%[46.1 µM],-1%,4%,11%
CCOc1ccc(-c2ccc(NS(=O)(=O)c3ccc(C)cc3)cc2)nn1,29%,-6.8%,-1%[46.1 µM],nt,nt,-28%,nt,nt
CCNC(=S)NNC(=O)C1CCCCC1,25%,6.6%,-5%,0%,19%,-2%,8%,4µM*
CC(=O)Nc1ccc(N(CC(=O)NC2CCCC2)C(=O)CCC(=O)Nc2cc(C)on2)cc1,13%,nt,10%[46.1 µM],5%,7%[46.1 µM],nt,-9%,1%
Cc1csc(N/N=C/c2ccccn2)n1,?,nt,?,?,?,nt,nt,-17%
Cc1cc(C)n(CC(=O)N/N=C/c2cc([N+](=O)[O-])ccc2O)n1,-12%,-7.3%,-21%,-15%,?,-9%,-28%,-18%
Cc1cccc(CN2CCN(C(=O)CCl)CC2)c1,35µM*,0.4%,?,-8%,?,-1%,8%,-11%
CCOC(=O)CN1C(=O)S/C(=C/C=C/c2ccc(N(C)C)cc2)C1=O,6%,-6.6%,-2%,-2%,?,-11%,20%,2%
O=C(c1c(F)cccc1F)N1CCN(c2ncccn2)CC1,-1%,2.2%,-11%,15%,8%,2%,0%,7%
Cc1ccc(N=Cc2cc(Br)cc(Cl)c2O)cc1,5%,nt,?,?,?,nt,nt,0%
COC(=O)CNC(=O)CN1C(=O)NC2(CCCc3ccccc32)C1=O (configuration not stated),-11%,nt,nt,10%,nt,nt,1%,1%
Cc1ccc(C(=O)Nc2ccccc2C(=O)NC(C(=O)O)C(C)C)cc1 (configuration not stated),65%[activator],2.3%,0%,2%,30%,12%,2%,-2%
COc1cccc(-c2ccc(NC(=O)C3CCCN(Cc4cnn(C)c4C)C3)cc2)c1 (configuration not stated),-4%,nt,nt,3%,nt,nt,0%,3%
COc1ccc(N(CC(=O)NCc2ccccc2)S(=O)(=O)c2c(C)n[nH]c2C)cc1,-12%,nt,nt,-4%,nt,nt,-3%,-3%
CCCCN(C)C(=O)CCC(=O)Nc1ccc2nc(N3CCN(C)CC3)cc(C)c2c1,-6%,nt,12%,-15%,-8%,nt,nt,-4%
CCn1c(/C=C/N(C(C)=O)c2ccccc2)[n+](CCCS(=O)(=O)[O-])c2cc(Cl)c(Cl)cc21,5%,nt,3%[46.1 µM],3%,6%[46.1 µM],nt,2%,0%
COc1ccccc1OCCCCNCCO,-4%,3.1%,16%,-22%,15%,0%,?,-1%
O=C1Nc2ccc(Br)cc2C1(O)Cc1ccccn1 (configuration not stated),nt,2.7%,-19%,10%,4%,15%,8%,26%
COc1ccc(/C=N/Nc2nn3cnnc3c3ccccc23)cc1,-21%,nt,-2%,4%,-11%,nt,6%,1%
O=C(NCC1([N+](=O)[O-])CN(C(=O)c2ccccc2)CN(C(=O)c2ccccc2)C1)c1ccccc1,1%,nt,nt,-12%,3%[46.1 µM],nt,-4%,0%
CCN(CC)C(=O)Cn1c(=O)n(CCCC(=O)NCc2ccc3c(c2)OCO3)c(=O)c2sccc21,25%,nt,-9%,7%,17%[46.1 µM],nt,-15%,-3%
O=C(NCc1ccc2c(c1)OCO2)c1ccc(N2CCCCCC2)c([N+](=O)[O-])c1,35%[activator],-3.7%,?,4%,?,?,20%,-11%
O=C(Nc1ccc2c(c1)OCCO2)c1ccco1,8%,1.2%,?,-2%,?,-3%,1%[9.22 µM],-15%
N#Cc1c(-c2ccc(F)cc2)nc(-c2ccccc2)[nH]c1=O,18%,nt,nt,-20%,nt,nt,10%,0%
CCCCNc1c([N+](=O)[O-])c(=O)n(C)c2ccccc12,18%,nt,-19%[46.1 µM],7%,3%[46.1 µM],nt,-2%,6%
CCCCOc1ccc(C(=O)Nc2ccc(-c3cc4ccccc4oc3=O)cc2)cc1,-7%,-0.2%,-6%[46.1 µM],nt,nt,2%,nt,nt
Cc1cc(NC(=O)CN2C(=O)NC3(CCCCC3C)C2=O)no1 (configuration not stated),-8%,2.6%,-2%,nt,?,-2%,16%,10%
COc1cccc(N2CCN(C(=O)c3cc4c(=O)oc5ccc(C)cc5c4s3)CC2)c1,6%,-0.4%,0%[46.1 µM],nt,-17%[46.1 µM],2%,nt,nt
COCC(C)n1c(C)cc(C(=O)COC(=O)c2c(NC(C)=O)sc(C)c2C)c1C (configuration not stated),?,-3.3%,?,-1%,2.6µM*,?,-5%,8%
COc1ccccc1OCCSc1nc2ccccc2n1CC(O)CO (configuration not stated),10%,nt,nt,1%,nt,nt,18%,-2%
CC(C)N(C(=O)Cn1cc(SCC(=O)Nc2ccccc2F)c2ccccc21)C(C)C,-8%,-6.0%,14%[46.1 µM],nt,nt,-14%,nt,nt
Cc1cccc(NC(=O)CSc2nnc(NC(=O)C3CCC3)s2)c1,-12%,nt,-22%,9%,-5%[46.1 µM],nt,6%,3%
CC(=O)c1sc(NC(=O)COc2ccc(Br)cc2)nc1C,-11%,nt,6%[46.1 µM],-2%,8%[46.1 µM],nt,-5%,0%
Cc1ccc(NC(=O)c2nnn(-c3ccc4c(c3)OCCO4)c2N)cc1,-16%,nt,?,-24%,-29%[46.1 µM],nt,-7%,2%
O=C1CCCN1c1ccc(S(=O)(=O)N2CCN(c3ccccc3)CC2)cc1,-8%,nt,11%,-10%,14%[46.1 µM],nt,3%,0%
O=S(=O)(NCc1ccccc1)c1ccccc1NCCc1ccccc1,97%[activator],nt,?,-2%,nt,nt,nt,-22%
CC(OC(=O)c1ccccn1)C(=O)Nc1nc(-c2ccc(F)c(F)c2)cs1 (configuration not stated),18%,nt,?,0%,?,nt,nt,-11%
COc1ccccc1-c1nnc(SC(C)C(=O)NCC2CCCO2)n1C (configuration not stated),-10%,nt,2%,16%,20%[46.1 µM],nt,nt,nt
O=C(CSc1ncccn1)Nn1cnnc1,10%,3.5%,6%,17%,3%,1%,-5%,9%
CC(C)C[C@H](NC(=O)N1CCN(c2ccccc2)CC1)C(=O)O,nt,1.1%,-2%,0%,5%,-6%,12%,-3%
C=CCn1c(SCc2cccnc2)nnc1-c1ccncc1,-14%,-4.8%,-3%,4%,-1%,-5%,-4%,5%
O=C(Nc1ccc(Br)cc1F)c1ccc2c(c1)OCCO2,-48%,nt,?,-12%,6.3µM*,nt,-3%,-1%
COC(=O)c1cc(C(=O)NC(C)(C)CC(C)(C)C)cc([N+](=O)[O-])c1,-11%,nt,nt,3%,nt,nt,-5%,0%
O=C1C2C3C=CC(C4CC34)C2C(=O)N1/N=C/c1ccc([N+](=O)[O-])s1 (configuration not stated),13%,-1.8%,?,3%,?,-1%,9%,2%
N=c1oc2ccccc2cc1C(=O)Nc1ccccc1,-45%,nt,?,-6%,?,nt,-1%,-1%
C/C(N)=C(/C#N)C(=O)COC(=O)CCS(=O)(=O)c1ccccc1,-6%,1.8%,-10%,2%,1%[46.1 µM],1%,7%,-15%
O=C(Nc1ccccc1)Nc1nnc(-c2ccccc2)o1,-1%,3.1%,-4%,0%,-9%,-2%,10%,1%
# (more compounds)
SMILES,2A StopGo,Cruzain Triton,LASV entry inh,RE007 growth inh,Marburg entry inh,Cruzain inh noDet,NS1 function inh,SARS PLP yeast
CCOC(=O)c1[nH]c(C)c(C(=O)NCCC2=CCCCC2)c1C,16%,5.3%,3%,-2%,-5%,-25%,-9%,2%
O=C(Nc1ccc([N+](=O)[O-])cc1Br)c1cccnc1,0%,-1.9%,-8%,-21%,19%,-6%,12%,-9%
O=C(N/N=C/c1ccco1)c1cc(=O)[nH]c2ccccc12,-26%,nt,nt,9%,4%[46.1 µM],nt,nt,0%
CC(C)c1nc2oc3c(=O)[nH]cnc3c2c2c1COC(C)(C)C2,-11%,nt,nt,-9%,nt,nt,1%,0%
CNC(=S)N1N=C2c3ccccc3CCC2C1c1ccccc1Cl (configuration not stated),-14%,nt,?,4%,9%[14.2 µM],nt,11%,-1%
CC1CCCCC1NC(=O)C1CCC(CNc2c(N3CCCCC3)c(=O)c2=O)CC1 (configuration not stated),-2%,nt,14%,-7%,4%[46.1 µM],nt,-3%,-3%

# The order is random. About 4.5% of those tested had a hit in this group.
